UCH37 DUB inh – human UCH37 deubiquitinating enzyme inhibition; inhibition, % (concentration not given with the values); 330,000 tested, 0.33% active; Q9Y5K5; purified proteasome/UCH37, Ub-AMC cleavage fluorescence;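 active = mean of two replicates above 20%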;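 note: 0% = compound-free wells with enzyme and 100% = wells lacking proteasome; stock transfer was 100 nL into about 20 µL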
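Material: Human UCH37 enzyme supplied as purified proteasome complex | Schedule: 30 min compound-proteasome preincubation then 25 min substrate reaction, room temperature | Detection: AMC fluorescence from Ub-AMC cleavage, excitation 355 nm, emission 460 nm | Benchmarks: Wells without proteasome as full block, compound-free enzyme plus substrate as uninhibited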
B2AR ag – activates human beta-2 adrenergic receptor causing internalization. P07550. Am2.2-beta2AR cells, FAP receptor internalization, flow cytometry; reference of the scale not given here. response, % (no concentration beside the values). 340,000 tested, 0.43% active;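 active = response above a set limit, near 3 SD of response in nonfluorescent compounds, cut at about 42% in these data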;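 note: stock transfer was 100 nL into about 11 µL; a reference agonist was the positive control; negative values mostly stem from fluorescent compounds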
Target sequence (P07550 whole entry, looked up): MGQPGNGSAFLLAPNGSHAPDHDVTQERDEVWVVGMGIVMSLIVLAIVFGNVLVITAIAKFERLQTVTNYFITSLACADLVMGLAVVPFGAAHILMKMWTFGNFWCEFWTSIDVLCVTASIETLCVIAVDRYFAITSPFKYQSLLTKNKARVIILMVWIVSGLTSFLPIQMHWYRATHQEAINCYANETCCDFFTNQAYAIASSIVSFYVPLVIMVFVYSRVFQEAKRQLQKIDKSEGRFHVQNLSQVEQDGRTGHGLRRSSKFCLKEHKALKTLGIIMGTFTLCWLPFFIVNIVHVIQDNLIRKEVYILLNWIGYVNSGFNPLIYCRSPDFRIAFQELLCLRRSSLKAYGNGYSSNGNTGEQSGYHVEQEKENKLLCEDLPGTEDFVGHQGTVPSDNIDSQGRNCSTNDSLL
HNF4A DNA FP – change in binding of human HNF4 alpha to DNA. P41235. HNF4a-FITC DNA binding, fluorescence polarization, 1 h. activity change, % at 10 µM. 360,000 tested, 0.3% active. AID 1224865; in the data active = activity change above about 30%, passing the limit was not always enough;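 note: controls were the assay level and a saturating level of protein; the project sought stronger binding though the title names inhibitors; some compounds called inactive have numbers as strong as hits; positive values seem to mean higher polarization but the record does not say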
Target sequence (P41235 whole entry, looked up): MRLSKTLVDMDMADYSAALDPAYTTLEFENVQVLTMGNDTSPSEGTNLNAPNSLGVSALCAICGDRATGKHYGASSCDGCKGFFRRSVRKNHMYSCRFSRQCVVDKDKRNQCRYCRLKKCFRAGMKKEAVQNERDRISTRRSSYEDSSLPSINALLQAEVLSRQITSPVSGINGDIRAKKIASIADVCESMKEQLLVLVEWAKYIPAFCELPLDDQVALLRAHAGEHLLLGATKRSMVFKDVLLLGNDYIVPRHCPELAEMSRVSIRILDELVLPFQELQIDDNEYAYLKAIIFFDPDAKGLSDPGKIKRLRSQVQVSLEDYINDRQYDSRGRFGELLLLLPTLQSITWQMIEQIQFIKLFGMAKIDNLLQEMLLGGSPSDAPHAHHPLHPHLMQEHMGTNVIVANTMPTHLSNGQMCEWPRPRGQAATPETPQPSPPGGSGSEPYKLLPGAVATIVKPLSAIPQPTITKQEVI
LANA-H2B inh – blocks KSHV LANA binding to histone H2A/H2B; cell-free LANA-H2A/H2B peptide, fluorescence polarization; inhibition, % (test concentration not listed); 320,000 tested, 0.6% active; in the data active = inhibition mostly above about 10%, no sharp cut-off; inactive = mostly below about 6.7%;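 note: stock transfer was 7.5 nL into about 10 µL; 0% = median of vehicle wells and 100% = median of positive control wells; one replicate is shown; the record names a cut of 25% in any replicate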
FGF22 binding – binders of recombinant human FGF22 by thermal shift | Q9HCT0 | SYPRO orange fluorescence; percent of sucrose octasulfate shift, DMSO zero | calls only at 9.99 µM | 340,000 tested, 1.5% active;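 active = melting point raised past a set limit in the mean and every replicate; inconclusive = no clear call; three in four hits are not shown here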
Target sequence (Q9HCT0 whole entry, looked up): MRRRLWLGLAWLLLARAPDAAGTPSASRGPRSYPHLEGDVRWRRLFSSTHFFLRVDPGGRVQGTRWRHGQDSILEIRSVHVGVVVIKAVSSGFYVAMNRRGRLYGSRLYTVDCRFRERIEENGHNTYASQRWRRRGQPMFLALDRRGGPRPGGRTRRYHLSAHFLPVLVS
ALR inh – human ALR oxidase inhibition via reduced H2O2; P55789; inhibition, % (no concentration beside the values); 290,000 tested, 3.8% active; purified ALR, DTT oxidation, H2O2 HRP-luminol luminescence;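 active = mean and each replicate at 75% or more; inconclusive = only one of the two met; inactive = neither met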;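 note: stock transfer was 7.5 nL into about 7.5 µL; 0% = neutral wells and 100% = wells with inactivated enzyme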
Ecoli growth – blocks Escherichia coli growth; OD600 absorbance (concentration not given with the values); 330,000 tested, 0.21% active; AID 1053175; OD600, 23 h; hits give low values;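 active = OD600 absorbance below the run mean of sample wells minus 3.6 SD, in any replicate, cut at about 0.56 in these data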;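 note: stock transfer was 300 nL into about 60 µL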
Starred values were filed as active, the others as inactive; i = inactive; ? = inconclusive; / = not tested or not shown; & = joins results of further samples. Some of the compounds tested; rates above refer to the full screens.

SMILES | UCH37 DUB inh | B2AR ag | HNF4A DNA FP | LANA-H2B inh | FGF22 binding | ALR inh | Ecoli growth
COc1cc(CNn2nnnc2N)cc(Br)c1OCc1c(Cl)cccc1Cl | 7.1 | 14 | 3.2 | -0.9 | / | 2 | 0.67
CC(=O)NC(Cc1ccc(C)cc1)C(=O)NC1CCN(C(=O)c2ccc([N+](=O)[O-])cc2)CC1 (stereo unspecified) | 1.9 | 6 | -1.4 | 0.3 | i | -23 | 0.72
CCCn1c(N)c(N(CCOC)C(=O)COC(=O)c2ccccc2NCCO)c(=O)[nH]c1=O | i | -3 | -1.7 | -0.9 | i | -3 | 0.65
O=C(N/N=C/c1cccc(Cl)c1)C(c1ccncc1)N1CCOCC1 (stereo unspecified) | / | -2 | 0.9 | -4.1 | i | 7 | /
CCCCc1ccc(NC(=S)NCCCN2CCOCC2)cc1 | 4.4 | -15 | 2.2 | -0.9 | i | -5 | 0.69
Brc1ccc2c(c1)C(C1=NCCN1)c1ccccc1CS2 (stereo unspecified) | 16 | 6 | 5.3 | -0.6 | i | 3 | 0.66
COc1ccc(C)cc1N(CC(=O)Nc1cccc(N(C)S(C)(=O)=O)c1)S(C)(=O)=O | 0.8 | 13 | -1.5 | 1.3 | / | -15 | 0.67
CCN(CC(=O)NC1CCCCC1)S(=O)(=O)c1ccc(Cl)cc1 | 4.0 | -4 | -1.1 | -3.1 | / | 2 | 0.71
COC(=O)c1ccc(NC(=O)CN2CCN(S(=O)(=O)c3cc(Cl)ccc3OC)CC2)cc1 | 0.7 | 6 | 0.5 | -0.9 | / | -2 | 0.72
COc1ccc(-c2c(C)n([O-])c3c([n+]2=O)CCCC3)cc1OC | 0.0 | / | / | 5.8 | / | -16 | 0.69
Cc1ccccc1NS(=O)(=O)c1ccc(OCC(=O)N2CCCCC2)cc1 | 2.0 | -4 | -1.1 | 4.9 | i | -8 | 0.71
COCCN(C(=O)c1ccc(-c2ccc([N+](=O)[O-])cc2)o1)c1c(N)n(CC(C)C)c(=O)[nH]c1=O | 15 | -1 | 0.3 | / | i | / | 0.69
COc1ccc(C(=O)Nc2cccnc2)cc1OC | 2.4 | 0 | 0.0 | -2.2 | / | -15 | 0.71
COC(=O)c1ccc(CSc2nc3ccccc3o2)cc1 | -0.2 | 3 | -2.4 | -4.2 | / | 19 | 0.71
CC(C)(C)c1ccc(CN2C(=O)CSC2=O)cc1 | 2.7 | -3 | -0.2 | -1.5 | i | -15 | 0.71
O=C1CC(c2ccc(Cl)cc2)n2nc(NS(=O)(=O)c3ccc(F)cc3)nc2N1 (stereo unspecified) | 0.4 | -12 | -3.4 | -4.1 | / | 11 | 0.79
COc1ccc(OCC(=O)Nc2c3c(nn2C(C)(C)C)CSC3)cc1 | 1.5 | 1 | 0.4 | -0.4 | i | 3 | 0.69
COc1c(C)cc(C(=O)C2CCCN(Cc3ccc(Oc4ncccn4)cc3)C2)cc1C (stereo unspecified) | 4.7 | -9 | 1.7 | 3.8 | i | -6 | 0.65
COCCCNC(=O)Nc1ccc(Br)cc1Cl | 2.7 | -9 | -3.1 | -1.1 | / | -4 | 0.66
CC(C)Cc1nnc(NC(=O)CCC(=O)NCCc2ccccc2)s1 | 0.1 | 12 | 5.7 | -1.3 | i | -3 | 0.68
COc1ccc(OC)c(CCNC(=O)CCCC(=O)n2ncc3cc(C)ccc32)c1 | 5.6 | -1 | 1.1 | 3.6 | i | -9 | 0.7
CCN(CC)CCOc1cccc(C(C)C)c1 | -0.6 | -1 | 3.1 | -1.5 | / | -25 | 0.74
Cc1cccc(NC(=O)CN2CCCCCC2)c1 | 5.1 | 3 | 0.5 | 0.0 | i | 0 | 0.67
O=C(CCC(=O)c1cccs1)OCC(=O)c1ccc(Cl)s1 | -3.2 | -1 | -1.1 | -6.2 | / | -4 | 0.7
CCn1c(SCC(=O)NC2CCCC2)nnc1C(C)NC(=O)c1ccccc1F (stereo unspecified) | / | 16 | 0.6 | -0.2 | i | / | /

Single values from the results shown:
For LANA-H2B inh, `O=C(CCC(=O)c1cccs1)OCC(=O)c1ccc(Cl)s1` is entered as -6.2
For UCH37 DUB inh, `COC(=O)c1ccc(CSc2nc3ccccc3o2)cc1` is entered as -0.2

The listing picks up, starting two compounds before the break.
SMILES | UCH37 DUB inh | B2AR ag | HNF4A DNA FP | LANA-H2B inh | FGF22 binding | ALR inh | Ecoli growth
O=C(CCC(=O)c1cccs1)OCC(=O)c1ccc(Cl)s1 | -3.2 | -1 | -1.1 | -6.2 | / | -4 | 0.7
CCn1c(SCC(=O)NC2CCCC2)nnc1C(C)NC(=O)c1ccccc1F (stereo unspecified) | / | 16 | 0.6 | -0.2 | i | / | /
CN(Cc1ccccc1)c1nnc(N)s1 | 0.4 | -5 | -0.9 | 1.1 | i | ? | 0.73
O=C(NCc1cccnc1)/C(=C\c1ccc(-c2ccc(Cl)c(Cl)c2)o1)S(=O)(=O)c1ccccc1 | -8.4 | 95* | 2.4 | -300 | i | 1 | 0.71
CCOc1cc(/C=N/NC(=O)C2CCCC2)ccc1O | / | 0 | 4.2 | 1.5 | i | 99* | /
O=C(O)c1ccc2nc(-c3ccccc3)c(-c3ccccc3)nc2c1 | -241 | 5 | 3.8 | 3.6 | / | 8 | 0.72
CN1C(C(=O)NCc2cccs2)=CC(c2ccc(F)cc2)=NS1(=O)=O | 2.2 | -1 | -4.0 | -3.1 | i | 3 | 0.72
COc1cc(C2OCC3C(c4ccc(OC5OC(CO)C(O)C(O)C5O)c(OC)c4)OCC23)ccc1O (stereo unspecified) | 2.8 | -2 | 3.9 | 6.6 | i | 95* | 0.77
CCC(C)N(C(=O)CSc1nncn1C)C1CCS(=O)(=O)C1 (stereo unspecified) | 4.6 | 3 | 4.7 | 5.7 | i | -1 | 0.68
CC(CCC(C)C(C)(C)C)[C@@H]1CC[C@H]2C3C[C@H](OS(O)(=S)=S)[C@H]4C[C@H](OS(O)(=S)=S)[C@@H](OS(O)(=S)=S)C[C@]4(C)[C@H]3CC[C@]12C (stereo partly specified) (tested in a mixture with another compound) | / | 30 | -82 | 4.6&1.9 | / | 98* | /
Cc1ccc(C(=O)Nc2c(-c3cccs3)nc3cc(C)ccn23)cc1 | 6.2 | -1 | -1.7 | -0.1 | / | 2 | 0.71
CCOc1ccc(C(C)=O)cc1COC(=O)c1ccc2c(c1)NC(=O)CS2 | 1.0 | 7 | 4.7 | / | i | / | 0.67
Cc1ccsc1-c1nc(CN2CCN(C)C(=O)[C@@H]2C)c(C)o1 | -2.7 | 0 | 2.1 | 1.1 | i | -2 | 0.68
C=CCN(C(=O)c1ccccc1)c1ccc(OC)cc1 | 0.5 | 2 | 2.0 | 0.7 | / | -9 | 0.64
CC(NC(=O)COC(=O)CCNC(=O)c1ccco1)C12CC3CC(CC(C3)C1)C2 (stereo unspecified) | -0.7 | -6 | 1.5 | -0.5 | / | 73 | 0.7
C#CCNS(=O)(=O)c1ccc(F)cc1Br | 4.3 | 0 | -4.5 | / | i | / | 0.69
CCNC(=O)COC(=O)c1[nH]c(C)c(C(=O)OC)c1C | 2.3 | 4 | 0.4 | 0.5 | i | -14 | 0.7
Cc1noc(C)c1S(=O)(=O)Nc1ccc(C(=O)N2CCN(c3ccc(Cl)cc3)CC2)cc1 | 1.3 | 5 | 0.9 | -2.1 | / | 15 | 0.71
O=C(/C=C/c1ccc(Cl)cc1)Nc1nccs1 | -2.9 | -2 | -2.5 | / | i | / | 0.7
CCOC(=O)c1cc2sccc2n1CC(=O)OC(C)C | 3.0 | 1 | 3.1 | 10 | i | -6 | 0.7
COc1ccccc1C(=O)NCC(=O)Nc1ccccc1 | 6.0 | -5 | 2.1 | 7.6 | / | -3 | 0.69
N#C/C(=C\c1cn(CCOc2ccccc2)c2ccccc12)C(=O)NCC1CCCO1 (stereo unspecified) | -0.6 | 0 | -3.3 | 1.0 | / | 3 | 0.71
C=CCN(CC=C)Cc1ccc(C(=O)OC)o1 | 5.4 | 11 | -0.5 | -1.3 | / | / | 0.73
COc1ccc2[nH]c(=O)c(NC(N)=S)nc2c1 | 11 | 1 | -4.2 | 0.0 | i | -2 | 0.66
COc1ccc(C(=O)NC(=S)Nc2nnn(C)n2)cc1 | 4.6 | -8 | -0.5 | -2.0 | i | 12 | 0.71
Cc1ccc(C(=O)COC(=O)CNC(=O)c2cccs2)cc1C | 2.7 | -1 | -0.5 | 0.6 | i | / | 0.72
O=C(c1ccoc1)N1CCCC(N2CCN(c3ccc(F)cc3)CC2)C1 (stereo unspecified) | 1.9 | 6 | 2.1 | 5.2 | i | 53 | 0.69

Part of the list above, with values under each structure.
Below each compound: UCH37 DUB inh, B2AR ag, HNF4A DNA FP, LANA-H2B inh, FGF22 binding, ALR inh, Ecoli growth
CC(NC(=O)COC(=O)CCNC(=O)c1ccco1)C12CC3CC(CC(C3)C1)C2 (stereo unspecified)
→ -0.7, -6, 1.5, -0.5, /, 73, 0.7
CC(C)(C)c1ccc(CN2C(=O)CSC2=O)cc1
→ 2.7, -3, -0.2, -1.5, i, -15, 0.71

Next section
SMILES | UCH37 DUB inh | B2AR ag | HNF4A DNA FP | LANA-H2B inh | FGF22 binding | ALR inh | Ecoli growth
Cc1ccc(NCc2nnc(SCC(=O)Nc3ncc(C)s3)n2Cc2ccco2)c(C)c1 | 4.3 | 6 | -0.4 | -2.1 | / | 98* | 0.68
CN(C)CCNC(=O)c1cc2c(s1)-c1ccc(Cl)cc1SC2 | / | 33 | 1.4 | -5.0 | i | -3 | /
Cc1cc(C)n(CCN(C)Cc2nc(Cc3ccccc3F)no2)n1 | 0.0 | 0 | 4.7 | 2.1 | i | -2 | 0.67
Cc1cccc2cc(CN(CCN3CCOCC3)C(=O)NCc3ccccc3)c(=O)[nH]c12 | 0.3 | -11 | -0.4 | -0.1 | / | 2 | 0.71
COC(=O)c1cccc(N2C(=O)c3cccnc3C2=O)c1 | -3.1 | 8 | -0.1 | -0.1 | / | -2 | 0.73
CCN(CC)S(=O)(=O)c1cccc(-n2c(O)c(C=Nc3ccccc3C(=O)O)c3ccccc3c2=O)c1 | 4.1 | 47* | 0.5 | 1.6 | i | / | 0.7
COc1ccc(C(C(=O)NC2CCCCC2)N(C(=O)CCl)c2cccc(Cl)c2)cc1 (stereo unspecified) | 3.7 | 42* | -3.8 | / | i | 5 | 0.67
Cc1cccc(OCC(=O)NCCNC(=O)c2cccnc2)c1 | 3.7 | -9 | -1.7 | 4.1 | / | 0 | 0.7
CN(C)C(CNC(=O)c1ccco1)c1cccs1 (stereo unspecified) | 5.3 | 0 | 0.3 | 1.1 | i | -3 | 0.69
COc1ccc(C(=O)c2c[nH]c(C(=O)NCc3cccs3)c2)cc1 | / | -6 | 2.1 | 0.5 | / | -3 | /
c1ccc2c(c1)OCC(CNCC1COc3ccccc3O1)O2 (stereo unspecified) | 1.8 | -9 | 1.2 | -4.6 | i | -8 | 0.69
CCOc1ccc2ccccc2c1/C=N/NC(=O)CNC(=O)c1ccccc1F | / | 3 | -2.0 | -6.8 | i | 0 | /
CCOC(=O)C(C)On1c(-c2ccccc2)nc2ccc([N+](=O)[O-])cc21 (stereo unspecified) | -4.1 | -6 | -2.0 | 0.2 | / | 97* | 0.7
O=C(C1CCCN(S(=O)(=O)c2ccc(Br)cc2)C1)N1CCN(Cc2ccccc2)CC1 (stereo unspecified) | 1.5 | 0 | 0.4 | -0.8 | i | -4 | 0.71
C=CCn1c(=O)/c(=C/c2cc(OC)c(OC)c(OC)c2)s/c1=C(/C#N)c1nc2ccccc2n1C | / | 3 | 3.4 | 2.3 | / | -18 | /
Cn1cnnc1SCC(=O)Nc1ccc(OCc2ccccc2)cc1 | 4.3 | -1 | 2.8 | 5.9 | i | / | 0.7
Cc1ccc([C@H]2C(C(=O)O)=C[C@@H](C(C)(C)C)N2S(=O)(=O)c2ccc(C)cc2)cc1 | 2.7 | -2 | 1.4 | 1.5 | i | / | 0.72
CCOc1ccc(S(=O)(=O)Nc2ccc(C(=O)N/N=C/c3c(C)nn(-c4ccccc4)c3N3CCCC3)cc2)cc1 | / | 6 | -5.0 | 0.0 | i | 1 | /
